PrP UTR inh – inhibition of PrP 5' UTR reporter expression | inhibition, % (no concentration beside the values) | 0.35% of 340,000 active | AID 488862, 2010 | cell-based PrP 5' UTR mRNA reporter, plate reader;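 active = every replicate at 50% or more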;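 also: 0 = median of the neutral control wells; tested in H4 reporter cells; numbers are from one replicate; inactives centre near -14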
BJeLR viability – MLPCN primary cell-based screen for lethality selective to Ras in HRASV12 cells | 0.17% of 300,000 active | BJeLR (HRASV12) viability, CellTiter-Glo ATP luminescence, 48 h; reference of the scale not given here | inhibition, % (concentration not given with the values);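 active = replicate mean above 50%; inconclusive = above 50% but judged a plate artefact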;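 also: 50 nL library stock added to about 25 µL; numbers are from one replicate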
RN4220 kill – growth inhibition of S. aureus RN4220, primary screen, OD600. 0.33% of 330,000 active. 16 h. inhibition, % (no concentration beside the values);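 active = z-score of -3 or lower and OD600 up to 0.18 on both plates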;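 also: plate controls were untreated cells for no effect and reference antibiotic for full effect; stock transfer was 100 nL into about 80 µL; one replicate is shown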
ugtP null kill – growth inhibition of ugtP-null S. aureus, primary screen, RN4220 ugtP deletion, OD600 | 16 h; some inactives read as strong as hits | growth inhibition, % (concentration not given with the values) | 0.54% of 330,000 active | AID 1259309, 2017;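 active = z-score under -3 and OD600 up to 0.15 on both plates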;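 also: plate controls were untreated wells for no effect and antibiotic for full effect; wells of about 80 µL received 100 nL stock; the first replicate is given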
Mtb hypoxia inh – PubChem AID 1159583. fluorescence inhibition, % (test concentration not listed). 0.1% of 300,000 active. M. tuberculosis hypoxia-regulated fluorescent reporter, fluorescence;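 active = 35 to 45% if threefold the growth effect, above 45% if 1.5-fold the growth effect; inactive = the rest, general growth blockers included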;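 also: wells of about 50 µL received 100 nL stock; 0% = vehicle wells and 100% = reference inhibitor wells; whole bacteria with a GFP reporter of the hypoxia response; strong numbers were not always called active; many hits fall short of the cut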
Autofluor counter – counter-screen for toxin protease inhibitors: compound fluorescence. compound autofluorescence counterscreen, microsphere flow cytometry; hits give high values. fluorescence intensity (test concentration not listed). 3.1% of 360,000 active. AID 624483;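 active = at least 3 SD above the mean of all compounds, about 16000 in these data; inconclusive = too few beads counted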;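 also: 100 nL of 1 mM stock went into each well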
Mtb hypoxia inh growth – also measured in Mtb hypoxia inh; calls as there; growth inhibition, %; measured here: M. tuberculosis growth (absorbance);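 0% = vehicle and 100% = reference antibiotic; read after six days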
Active calls of the source: *; ? = inconclusive; / = no result given.

SMILES	PrP UTR inh	BJeLR viability	RN4220 kill	ugtP null kill	Mtb hypoxia inh	Mtb hypoxia inh growth	Autofluor counter
CC(C(=O)c1c[nH]c(C(=O)N=CN(C)C)c1)c1ncc(C(F)(F)F)cc1Cl (configuration not stated)	-16	1	0.0	3	6	3	4869
COc1ccccc1C(=O)Nc1ccc(Br)c2cccnc12	-29	1	-13	-1	5	-4	3343
NC(=O)c1cc(-c2ccccc2)sc1NC(=O)CN1CCCCC1	-6	4	-5.4	-12	4	4	2495
Cc1ncc([N+](=O)[O-])n1CC(=O)Nc1ccc(F)c(F)c1	-26	-3	1.3	11	3	8	3362
CCCn1c(SCC(=O)Nc2ccc3c(c2)OCO3)nc2c1c(=O)n(C)c(=O)n2C	-16	10	3.9	9	2	3	14939
CC(C)(C)NC(=O)NC(=O)COc1ccc(Br)cc1Br	-109	-11	15	-9	-5	-7	2344
CC1CCCC(C)N1C(=O)COC(=O)c1cc(Br)ccc1Cl (configuration not stated)	0	12	4.0	3	-4	4	4282
COc1cccc(-c2nnn(CC(=O)NC3CCCC3)n2)c1OC	-21	6	4.2	4	10	12	16511*
CCOc1ccc(Br)cc1C(=O)N/N=C/c1cccc(C)n1	-19	8	/	/	/	/	3323
COc1ccc(/C=C2\SC(=O)N(CCC(=O)N3CCCCC3)C2=O)cc1OC	8	-2	4.8	5	-6	-10	4678
CCCNC(=O)NS(=O)(=O)c1ccc(Cl)cc1	1	-2	8.3	-1	2	-8	4615
COc1ccc(CC(=O)Nc2cccc(S(=O)(=O)N3CCCCC3)c2)cc1	2	/	-0.5	3	3	4	3238
C[C@]12C(=O)N(c3cccc(Cl)c3)C(=O)N1[C@H]1c3ccccc3OC[C@@H]1[C@H]2c1ccccc1	-23	2	/	/	/	/	4704
COc1ccc(CCNC(=O)c2cccc(S(=O)(=O)N3CCc4ccccc4C3)c2)cc1	-33	/	3.3	10	1	-6	2905
COc1ccc(C)cc1N(CC(=O)N1CCc2ccccc2C1)S(C)(=O)=O	-15	-3	5.1	7	9	6	4320
CCOc1ccc(C(=O)OCC(=O)NCc2ccccc2)cc1OCC	-15	/	3.3	0	25	6	3907
CSc1nc2ncc(C(=O)O)c(N)n2n1	-5	3	3.7	2	14	8	2578
O=C(N/C(=C\c1cccs1)C(=O)N1CCCCCC1)c1ccccc1	-31	-2	0.1	-1	9	8	5495
CC(C)(C)OC(=O)N1Cc2ccccc2C[C@H]1C(=O)N1CCC[C@H]1C(=O)O	-17	9	-0.6	0	-9	-5	3759
COc1cccc(C(=O)N2CCN(S(=O)(=O)Cc3ccccc3)CC2)c1OC	-25	-2	-2.7	-1	0	6	9697
CCCCCCNC(=O)CC(NS(=O)(=O)c1ccc(OC)cc1)C(C)C (configuration not stated)	-21	-7	2.3	-7	11	7	2528
O=S(=O)(NC1CC1)c1ccc(S(=O)(=O)N(Cc2ccccn2)C2CCCC2)cc1	-20	4	3.3	0	5	9	5338
O=C(CNC(=O)c1ccco1)OCc1ccccc1Cl	-22	/	1.9	5	7	-5	3126
CC(OC(=O)C1CCCCC1)C(=O)Nc1cccc([N+](=O)[O-])c1 (configuration not stated)	-16	/	4.6	6	8	-1	/
CN(C)C(CNC(C(=O)Nc1ccc([N+](=O)[O-])cc1Br)c1ccccc1)c1ccccc1 (configuration not stated)	-9	-13	-9.5	7	-5	6	4503
O=C(Cc1cn2ccsc2n1)Nc1nc2c(s1)CN(Cc1ccccc1)CC2	-4	-9	1.2	-2	-15	-12	3382
CCOC(=O)c1c(C)[nH]c(C2=NNC(=Nc3ccccc3)SC2)c1C	-20	/	6.9	-9	-1	-5	2322
N#CCCN(C(=O)Nc1ccccc1)C1CCCCC1	-5	/	5.3	0	19	7	3767
COc1cc2c(cc1OC)C(C1C(=O)CC(C)(C)CC1=O)N(C(=O)CCl)CC2 (configuration not stated)	-8	-7	2.1	5	3	6	2745
Cc1cccc(OCCOCCN2CCNCC2)c1C	5	2	-0.7	3	2	7	2041

Entries above that contain an aryl thioether with sulfur outside any ring (2):
SMILES	PrP UTR inh	BJeLR viability	RN4220 kill	ugtP null kill	Mtb hypoxia inh	Mtb hypoxia inh growth	Autofluor counter
CCCn1c(SCC(=O)Nc2ccc3c(c2)OCO3)nc2c1c(=O)n(C)c(=O)n2C	-16	10	3.9	9	2	3	14939
CSc1nc2ncc(C(=O)O)c(N)n2n1	-5	3	3.7	2	14	8	2578

(list continues)
SMILES	PrP UTR inh	BJeLR viability	RN4220 kill	ugtP null kill	Mtb hypoxia inh	Mtb hypoxia inh growth	Autofluor counter
COc1ccc(OC)c(C=Nn2c(COc3ccccc3)n[nH]c2=S)c1	/	/	3.9	12	5	-3	/
NC(=O)c1ccc(NC(=O)CSc2nnc(C3CCCCC3)n2N)cc1	-9	-13	3.1	6	5	1	4282
C=CCn1c(O)c(C(CC)=NCc2cc(OC)cc(OC)c2)c(=O)[nH]c1=O	-9	9	1.7	1	/	/	2926
COc1cc2c(cc1OC)C(C)N(S(=O)(=O)c1ccc(Cl)nc1)CC2 (configuration not stated)	-13	-1	2.3	-2	11	-1	4919
CCn1cc(C(=O)NCCc2ccc(Cl)cc2)c(=O)c2ccc(C)nc21	3	15	1.6	9	16	-4	2830
OC1(c2cccs2)CN(c2ccccc2)C2=[N+]1CCCC2 (configuration not stated)	9	-5	6.2	2	15	9	3538
Cc1ccc(NC(=S)N2CCN(S(=O)(=O)c3ccccc3)CC2)cc1	0	/	1.0	7	4	6	5107
C=CCSC1=C(C#N)C(c2cccc(OC)c2)CC(=O)N1 (configuration not stated)	-3	-3	3.7	0	/	/	4834
CCN(C(=S)NC(=O)c1ccco1)c1cccc2ccccc12	-26	/	2.4	3	6	4	8249
CCn1cc(C(=O)NCc2ccc3c(c2)OCO3)c(=O)c2cc(F)c(N3CCN(C(=O)c4ccco4)CC3)cc21	9	6	44	69	/	/	2697
Cc1ccccc1N1CCN(CCCOc2ccc3c(C)cc(=O)oc3c2)CC1	-14	2	4.2	8	8	10	10054
Cc1cc(C)c(NC(=O)COC(=O)c2ccc([N+](=O)[O-])s2)c(C)c1	-14	-1	0.7	-7	5	6	11085
O=C(Cc1ccc(F)cc1)NC1CCCC1	-13	-2	-1.5	9	/	/	2661
COc1ccc(OC)c(Nc2cc(C)nc3nc(C)nn23)c1	0	2	0.2	3	/	/	4478
N/C(=N\OC(=O)COc1ccc(Br)cc1Cl)c1cccnc1	-71	-2	5.4	-6	5	3	2766
COc1cccc(NC(=O)CN2C(=O)COc3ccc(S(=O)(=O)N4CCCCCC4)cc32)c1	-22	-2	-0.5	-4	-3	7	5051
O=C(COc1cccc(F)c1)NNC(=O)Cc1ccc(S(=O)(=O)N2CCOCC2)s1	-17	/	4.4	3	9	10	3355
O=C(CSCCc1ccccn1)Nc1cccnc1	-26	14	7.2	11	5	5	2475
Cc1ccc(CSc2ncccc2C(=O)O)cc1	-18	-2	4.2	10	14	-1	6108
COC(=O)CCc1sc(Nc2ccc(Br)cc2)nc1-c1ccc(OC)cc1	-12	-7	1.0	-4	/	/	1954
CCOc1ccccc1CN1CCC(n2nccc2NC(=O)C2CCCC2)CC1	-14	4	2.3	7	8	-23	6314
Cc1nn(-c2ccc(F)cc2)c(Cl)c1C(=O)NCC1CCCO1 (configuration not stated)	0	/	7.2	10	5	-5	2960
CC(=O)Oc1ccc(-c2cccc(C(=O)NCCCO)c2)cc1	-34	-8	-0.6	-2	-4	5	10909
O=[N+]([O-])c1cccc(N(CC(O)CN2CCCCC2)S(=O)(=O)c2ccccc2)c1 (configuration not stated)	-4	-7	3.7	3	-6	-14	3151
CCN1C(=O)/C(=C2\SC(=S)N(NC(=O)c3ccccc3O)C2=O)c2ccccc21	-31	-1	7.8	6	-11	6	4773
COc1ccc(CCNC(=O)CNCC(c2ccccc2)N(C)C)cc1OC (configuration not stated)	-23	-1	3.4	3	8	-2	3775
CCc1c(C)sc2nc3c(C(=O)N4CCOCC4)cc(C(=O)c4ccccc4O)cn3c(=O)c12	-25	9	1.6	5	-18	4	4479
CC1(C)Oc2ccc(C(=O)NC3CCCC3)cc2N(CC(=O)N2CCOCC2)C1=O	-8	-8	3.1	-4	8	-4	9634
CCC1CCCCN1C(=O)CSc1nnc(-c2c[nH]c3ccccc23)o1 (configuration not stated)	-38	-9	0.0	-11	7	1	9380
COc1ccc(CC(NC(C)=O)C(=O)NC2CCN(S(=O)(=O)c3ccccc3)CC2)c(OC)c1 (configuration not stated)	-15	12	1.4	4	-4	-9	5786
CCCn1cc(NC(=O)c2cc(-c3ccccc3)on2)cn1	-31	9	1.7	-4	-3	4	10838
C=CCn1c(C)cc(C(=O)Cn2nc(C(=O)O)c3ccccc3c2=O)c1C	-32	8	1.6	1	9	10	4593
CCCCC(=O)Nc1nc2ccc(C(=O)OC)cc2s1	-43	-6	0.0	-38	9	11	2759
COc1ccc(C(=O)Nc2c3c(nn2C(C)(C)C)CS(=O)(=O)C3)cc1OC	-19	-1	/	/	/	/	6146
CCC(C)c1ccccc1NC(=O)COC(=O)c1ccc(N2CCCC2)c([N+](=O)[O-])c1 (configuration not stated)	-11	0	3.1	-6	8	6	2135
COc1ccccc1N(CC(=O)NC1CCCC1)S(=O)(=O)c1ccc(C)cc1	-20	-4	2.7	0	17	9	5349
c1cc2c(cc1CN1CCNCC1)OCO2	-16	2	-1.2	5	0	-6	3693
Cc1nn2cc(-c3ccc(Cl)cc3)cnc2c1Cl	-54	-7	3.0	7	2	-3	3313
O=C(Nc1ccccc1N1CCCC1)c1ccc2c(c1)OCO2	-27	-6	4.7	-1	8	7	4723
C/C(=N\NC(=O)c1ccc2c(c1)OCO2)c1ccc(O)cc1	-45	0	/	/	/	/	?
CCOC(=O)C1=C(SCC(=O)Nc2ccccc2)NC(=O)C(C#N)C12CCCCC2 (configuration not stated)	1	6	6.3	4	6	11	2901
Cc1ccc(C(O)(CNCc2ccccc2)c2ccccc2)cc1 (configuration not stated)	-7	11	-0.1	0	-6	4	3305
COCc1cc(C)nc(OCC(=O)N/N=C/c2ccco2)c1C#N	-9	5	/	/	/	/	2563
CCOc1cc(C)c(Cl)cc1S(=O)(=O)NCc1ccco1	-16	-6	6.7	4	/	/	2162
O=S(=O)(c1cc(Cl)ccc1Cl)N1CCNCC1	-16	-4	0.4	4	2	-12	20984*

Sorted by heavy-atom count (low to high): part of the list above
SMILES	PrP UTR inh	BJeLR viability	RN4220 kill	ugtP null kill	Mtb hypoxia inh	Mtb hypoxia inh growth	Autofluor counter
CCCCC(=O)Nc1nc2ccc(C(=O)OC)cc2s1	-43	-6	0.0	-38	9	11	2759
C=CCn1c(C)cc(C(=O)Cn2nc(C(=O)O)c3ccccc3c2=O)c1C	-32	8	1.6	1	9	10	4593
CCOC(=O)C1=C(SCC(=O)Nc2ccccc2)NC(=O)C(C#N)C12CCCCC2 (configuration not stated)	1	6	6.3	4	6	11	2901
CCC(C)c1ccccc1NC(=O)COC(=O)c1ccc(N2CCCC2)c([N+](=O)[O-])c1 (configuration not stated)	-11	0	3.1	-6	8	6	2135

Going on with the list.
SMILES	PrP UTR inh	BJeLR viability	RN4220 kill	ugtP null kill	Mtb hypoxia inh	Mtb hypoxia inh growth	Autofluor counter
c1cncc(-c2ccc3ncnc(NCc4cccs4)c3c2)c1	-11	/	6.9	-12	17	9	4210
C/C(=N\OC(=O)c1ccc(OC(C)C)cc1)c1ccc(C)c(C)c1	-47	-2	/	/	/	/	4625
Cc1ccc(C(=O)N/C(=C\c2ccco2)C(=O)N2CC(C)OC(C)C2)cc1C (configuration not stated)	-9	/	2.0	1	-4	4	5615
O=C(OCC(=O)N1CCN(C(=O)c2ccco2)CC1)c1ccc(S(=O)(=O)N2CCCCC2)cc1	-2	5	-15	-3	22	-18	2872
COc1cccc(-n2ccnc2SCC(=O)N2CCc3ccccc32)c1	10	13	12	0	/	/	3725
Cc1cc2oc(=O)cc(CN(C)Cc3ccc(OC(F)F)cc3)c2cc1Cl	2	6	-2.1	-8	-1	4	4401
NC(=O)COc1cccc2cccnc12	-11	0	5.5	-5	-3	-1	16622*
O=C(Nc1cccc(F)c1)NC1(C(=O)N2CCN3CCCC3C2)CCCCC1 (configuration not stated)	-47	-2	2.3	8	17	4	2522
COc1ccc2c(c1)C(C)=CC(C)(C)N2C(=O)Nc1ccccc1	-15	-10	-12	0	18	9	2879
Cc1cc(OCC(=O)Nc2ccc(CN3CCOCC3)cc2)ccc1Cl	-13	2	2.3	-1	6	-8	4588
Cc1ccccc1OCCSCc1nc2ccccc2[nH]1	-20	-6	0.5	1	11	13	1933
COc1ccc(NC(=O)CSc2ccc3nnc(-c4ccccn4)n3n2)c(OC)c1	0	0	4.8	13	5	6	4183

Outcome played no part in choosing rows; about 4% have a hit in one of these screens.
